Cruzain inh noDet: qHTS Assay for Promiscuous and Specific Inhibitors of Cruzain (without detergent). purified cruzain, Z-FR-AMC fluorescence, no detergent. Potency, µM, without a hit: max response, negative = inhibition, hits mostly inhibitors. 2.3% of 200,000 active;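 also: plate controls were enzyme without inhibitor for no effect and buffer without enzyme for full effect; nearly all actives have a fitted effect of over 40% in size; top concentration of the series not given in the record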
Target sequence (P25779 123-467 limits assumed): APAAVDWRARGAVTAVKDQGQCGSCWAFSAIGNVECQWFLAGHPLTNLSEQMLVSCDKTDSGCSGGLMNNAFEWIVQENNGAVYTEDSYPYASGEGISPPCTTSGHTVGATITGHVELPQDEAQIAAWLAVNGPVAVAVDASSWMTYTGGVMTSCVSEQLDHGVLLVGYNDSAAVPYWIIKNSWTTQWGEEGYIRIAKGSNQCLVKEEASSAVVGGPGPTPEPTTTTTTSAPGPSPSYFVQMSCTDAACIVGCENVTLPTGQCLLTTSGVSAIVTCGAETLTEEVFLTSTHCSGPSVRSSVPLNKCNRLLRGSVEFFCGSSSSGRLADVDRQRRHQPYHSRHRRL
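Detergent-free condition (0.00005% Triton X-100) in acetate buffer pH 5.5 with DTT. 1.5 nM enzyme and compound were pre-mixed 15 min, then 2 uM Z-FR-AMC substrate added; reaction progress from fluorescence change between first and third reads (60 s).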
Cruzain Triton: qHTS Assay for Promiscuous and Specific Inhibitors of Cruzain (with detergent) | purified cruzain, Z-FR-AMC fluorescence, 0.01% Triton | Potency, µM, without a hit: max response, negative = inhibition, usual class: inhibitors | 0.43% of 200,000 active;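 also: plate controls were neutral wells for no effect and buffer without enzyme for full effect; nearly all actives have a fitted effect of over 40% in size; top concentration of the series not given in the record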
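Steps: dispense cruzain (1.5 nM final) in acetate buffer pH 5.5 with DTT and 0.01% Triton X-100; pin-transfer compounds; incubate 15 min RT; add Z-FR-AMC (2 uM final); read fluorescence every 30 s, using the 60 s intensity change.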
NS1 inh: qHTS Assay for Inhibitors of Influenza NS1 Protein Function; S. cerevisiae slowed by influenza A NS1, growth recovery by OD600; Potency, µM (titrated, usually from 46.1 µM), without a hit: at the highest dose activity, positive = more growth; 0.4% of 270,000 active; AID 2326, 2010; active means well fitted rising curve with a large enough effect; inconclusive means small, poorly fitted or top-dose-only effect; inactive means no such curve, though single readings can be large or run the other way; also: nearly all actives have a fitted effect of over 50% in size
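In this qHTS, NS1 from influenza A is expressed in budding yeast, where it slows growth. Cells are switched from glucose to 2% galactose medium (pH 6.0, -URA), treated with compound, and growth recovery is read at OD600.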
Marburg entry inh: qHTS for inhibitors of binding or entry into cells for Marburg Virus; Marburg virus pseudotyped entry inhibition, cell reporter; control for the full effect not named in the record; about a third of the inactives were read at about 46 µM; Potency, µM (titrated, usually from 37.8 µM), for inactives: top-dose activity change, negative = inhibition, most hits filed as inhibitors; 1.8% of 300,000 active; active = well fitted inhibition curve with a large enough effect; inconclusive = small, poorly fitted or top-dose-only effect, or effect the other way; inactive = flat fitted curve, though single readings scatter; tested in HEK293 cells; about a fifth of its hits are not listed in these tables; also: % is scaled to controls: 0 for no effect and ±100 for the full control effect; luciferase read-out
Lassa entry inh: qHTS for Inhibitors of binding or entry into cells for Lassa Virus. AID 540256, 2011. 1.2% of 300,000 active. Potency, µM (doses to about 37.9 µM), without a hit: at the top dose activity change, negative = inhibition, usual class: inhibitors. Lassa virus pseudotype entry inhibition, cell reporter; control for the full effect not named in the record; active means well fitted inhibition curve with a large enough effect; inconclusive means small, poorly fitted or top-dose-only effect, or effect the other way; inactive means flat fitted curve, though single readings scatter; tested in HEK293 cells; also: % is scaled to controls: 0 for no effect and ±100 for the full control effect; nearly all actives have a fitted effect of over 50% in size; luciferase read-out
2A StopGo: High Throughput Screening for Foot and Mouth Disease Virus Antivirals; Potency, µM (top dose mostly 57.9 µM), inactives show top-dose signal change, negative = less light; human cells with a luciferase reporter of 2A StopGo recoding; control for the full effect not named in the record; 1.2% of 410,000 active; AID 1159524, 2015; active = well fitted falling curve with a large enough effect; inconclusive = small, poorly fitted or top-dose-only effect; inactive = no such curve, though single readings can be large or run the other way; tested in HEK293T cells; also: % is scaled to controls: 0 for no effect and ±100 for the full control effect; nearly all actives have a fitted effect of over 45% in size; luciferase light after 4 h
RE007 growth inh: qHTS Assay for Inhibitors of the HIV-1 protein Vpr; S. pombe RE007 Vpr strain, BacTiter-Glo ATP luminescence, 24 h; control for the full effect not named in the record; Potency, µM (series often up to 92.2 µM), for the others: at the top dose activity change, negative = less growth; 0.21% of 360,000 active; active = well fitted falling curve with a large enough effect; inconclusive = small, poorly fitted or top-dose-only effect; inactive = no such curve, though single readings can be large or run the other way;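 also: % is scaled to controls: 0 for no effect and ±100 for the full control effect; nearly all actives have a fitted effect of over 50% in size; the assay follows cell death caused by Vpr and the record does not say whether a fall means rescue or toxicity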
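Fission yeast strain RE007, carrying one chromosomally integrated HIV-1 vpr copy, was seeded at OD 0.01 in PMG+AL medium with 23 nL pinned compound. After 24 h at 30 °C and 99% humidity, viability was read by BacTiter-Glo luminescence.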
SARS PLpro yeast: qHTS of Yeast-based Assay for SARS-CoV PLP; AID 485353, 2010; 0.19% of 330,000 active; Potency, µM (highest dose often 32.9 µM), inactives show top-dose activity, positive = growth rescue; S. cerevisiae expressing SARS-CoV PLpro, growth rescue; control for the full effect not named in the record; active means well fitted rising curve with a large enough effect; inconclusive means small, poorly fitted or top-dose-only effect; inactive means no such curve, though single readings can be large or run the other way; also: 0% is about no effect; nearly all actives have a fitted effect of over 55% in size; growth read by luminescence after 48 h
* hit, by the source's call; ? = inconclusive; · = no result given; & = joins results of further samples; [ ] = dose if it differs, or a comment. Unless noted, calls follow the shape of the dose curve; as a rule, active = well fitted curve in the direction sought with a large enough effect; inconclusive = small, poorly fitted or top-dose-only effect, or another doubt; inactive = no such curve, though single readings can be large; an effect the other way counts as inactive or inconclusive. Potency is read from the fitted curve at half-maximal effect.

The line under a structure holds: RE007 growth inh	Lassa entry inh	NS1 inh	Cruzain Triton	SARS PLpro yeast	Marburg entry inh	Cruzain inh noDet	2A StopGo
CC1(C)CC(=O)c2sc(NC(=O)CN3CCCCC3)nc2C1
  -1%	17%	-2%	-1.6%	-3%	10%	-1%	-11%
CC(C)(Oc1ccc(Cl)cc1)C(=O)NC1CCCCC1
  -17%	1%[46.1 µM]	·	·	1%	0%	·	?
CCOC(=O)c1ccc(NC(=O)CSc2nccn2Cc2ccc(OC)cc2)cc1
  ·	?	·	-5.3%	·	·	10%	-23%
COc1ccc(OC)c(C(c2nnnn2Cc2ccco2)N2CCN(C)CC2)c1 (centres undefined)
  8%	·	0%	·	0%	·	·	-3%
O=C(/C=C/c1ccc(OC2CSC2)cc1)c1ccc(Cl)cc1
  -25%	4%	8%	-5.5%	16%	?	2%	-10%
COc1ccc2cc(C)c3nnc(SCC(=O)Nc4nc(-c5ccccc5)cs4)n3c2c1
  -18%	-21%	2%	3.0%	0%	-26%	?	17%
CC1=CCC(C(=O)O)(C(=O)N/N=C/c2cccs2)C(c2ccc(F)cc2)C1 (centres undefined)
  9%	0%	-1%	-7.0%	8%	9%	-3%	7%
O=C1N(Cc2cccnc2)C[C@@H]2C[C@@H](c3ccc(C(F)(F)F)cc3)N3CCC[C@@]123
  -10%	-10%	8%	·	0%	0%[46.1 µM]	·	-8%
Cc1c(Br)ccc(NC(=O)COc2ccccc2C(N)=O)c1C
  -23%	-27%	-1%	·	0%	1%[46.1 µM]	·	-16%
CN(C(=O)CN1C(=O)S/C(=C\c2ccc(Cl)cc2)C1=O)C1CCS(=O)(=O)C1 (centres undefined)
  3%	·	13%	·	9%	·	·	-17%
CCOc1cc(/C=N\NC(=O)OC)ccc1OC(=O)c1ccco1
  3%	3%[46.1 µM]	·	·	-2%	4%[46.1 µM]	·	2%
CN(CC(=O)NC1CCCCCC1)S(=O)(=O)c1cnc[nH]1
  5%	1%	·	·	4%	16%	·	-6%
CN(C)c1ccc(-c2nc(-c3cc4cc(Cl)ccc4oc3=O)cs2)cc1
  ·	6%[46.1 µM]	·	3.3%	·	·	-4%	23%
CCOc1ccccc1N=CC1=C(O)CC(c2ccccc2)CC1=O (centres undefined)
  -19%	?	3%	·	0%	?	·	-13%
O=C(Nc1ccc(OC(F)(F)F)cc1)C1CCCN(S(=O)(=O)c2cccc3nonc23)C1 (centres undefined)
  ·	-15%[46.1 µM]	·	-2.6%	·	4%[46.1 µM]	-3%	-18%

The line under a structure holds: RE007 growth inh	Lassa entry inh	NS1 inh	Cruzain Triton	SARS PLpro yeast	Marburg entry inh	Cruzain inh noDet	2A StopGo
Cc1ccc(C(=O)N/N=C\c2ccc(-c3ccc(Cl)c(Cl)c3)o2)cn1
  3%	?	-2%	·	-1%	?	·	?
COc1ccccc1C(=O)Nc1ccccc1N1CCN(S(C)(=O)=O)CC1
  -9%	-7%	-21%	1.4%	2%	-9%	-2%	0%
Cc1ncc(CO)c(/C=N/Nc2cccc(Cl)n2)c1O
  -5%	·	5%	·	2%	·	·	-21%
COc1ccccc1CNS(=O)(=O)c1cc(C)ccc1OC
  6%	-3%	-2%	3.8%	-8%	12%	-4%	23%
Cc1c(C(=O)Nc2ccccn2)oc2ccccc12
  -28%	-8%	-8%	-3.9%	0%	?	-10%	-2%
CC1(C)C(C(=O)N2CCN(c3ccc(Cl)cc3)CC2)C1(C)C
  14%	·	-47%	·	-3%	·	·	?
CC(=O)c1cccc(NC(=O)N2CCC(c3nnc(SCC(N)=O)n3C)CC2)c1
  4%	5%	-2%	4.4%	-7%	-1%[46.1 µM]	6%	-8%
CCCCOc1ccc(S(=O)(=O)n2nc(C)c(S(=O)(=O)N3CCCCCC3)c2C)cc1
  ·	-1%[46.1 µM]	·	-1.3%	·	·	6%	-5%
N#Cc1nc(-c2ccccc2)oc1N1CCCCC1
  5%	7%	-2%	-20%	2%	7%	21%	25%
CC(C)NC(=O)COC(=O)c1ccc(Cl)c(S(=O)(=O)N2CCCC2)c1
  -9%	-11%	-6%	-0.3%	-1%	0%	7%	5%
COc1ccc(C)cc1-n1c(=O)c2ccccc2c2ccccc2c1=O
  5%	-26%	·	·	-9%	-1%[46.1 µM]	·	25µM*
COc1ccc(CCNC(=O)Cn2nnc(-c3ccc(C(F)(F)F)cc3)n2)cc1OC
  ·	-3%[46.1 µM]	·	-0.1%	·	-9%[46.1 µM]	1%	-28%
Cc1cccc(C)c1NC(=O)c1sccc1SCC#N
  5%	7%	7%	0.4%	4%	10%	5%	-2%
CC(C(=O)NC1=NCCS1)(C(F)(F)F)C(F)(F)F
  2%	-20%	-4%	0.4%	0%	-8%	-1%	?
Cc1cccc(N2C(=O)C(O)=C(C(=O)c3cccs3)C2c2ccccc2)n1 (centres undefined)
  -3%	·	2%	·	0%	·	·	-12%

The line under a structure holds: RE007 growth inh	Lassa entry inh	NS1 inh	Cruzain Triton	SARS PLpro yeast	Marburg entry inh	Cruzain inh noDet	2A StopGo
CCc1nnc(NC(=O)C2CC(=O)N(C3CCCC3)C2)s1 (centres undefined)
  -21%	0%[46.1 µM]	2%	·	-5%	?	·	5%
CC(C)CCNC(=O)c1cc(-c2ccco2)nc2ccccc12
  14%	1%	23%	-8.6%	-3%	2%	?	-13%
CC1(C)Cc2c(sc3nc(SCC(=O)NCc4ccco4)n(-c4ccccc4)c(=O)c23)CS1
  4%	-18%	14%	-7.2%	-3%	-6%&-6%&-6%	-21%	2%
CC(C)(C)C1CCC(C(=O)NNC(=O)c2ccncc2)CC1 (centres undefined)
  2%	-24%	·	·	·	?	·	-6%
O=C(Nc1ccc(OC(F)F)c(Cl)c1)c1cccc(OC(F)F)c1
  ?	-3%	-54%	-20%	-53%	?	-7%	-25%
O=C(c1ccc(F)c(F)c1)N1CCCc2ccccc21
  3%	·	-30%	·	2%	·	·	-4%
CC(C)(Oc1ccc(Cl)cc1)C(=O)Nc1ccc(S(=O)(=O)Nc2ncccn2)cc1
  2%	·	20%	·	-3%	21%[46.1 µM]	·	-7%
Cc1ccc(CNC(=S)Nc2ccc(C)c([N+](=O)[O-])c2)cc1
  4%	20%	26%	-5.9%	7%	28%	16%	-24%
CC(OC(=O)c1ccc2ncsc2c1)C(=O)NC1CCCCC1C (centres undefined)
  2%	?	·	·	-1%	5%	·	1%
COc1cc2ccccc2cc1C(=O)OCC(=O)N1CCOCC1
  -5%	14%	-2%	-0.4%	-2%	7%	-1%	-21%
O=C1COc2cc(S(=O)(=O)CCC(=O)N3CCN(c4ccccc4F)CC3)c(Cl)cc2N1
  ·	20%[46.1 µM]	·	-4.6%	·	·	14%	-25%
CCc1ccc(S(=O)(=O)Nc2ccc(-c3ccc4nncn4n3)cc2)s1
  -4%	2%	·	·	0%	-2%	·	34%[activator]
Cc1ccc(C)c(NS(=O)(=O)c2cc3c(cc2Cl)NC(=O)CO3)c1
  ·	10%[46.1 µM]	·	-11%	·	·	-9%	20%
CCOc1cc(/C=N/NC(=O)OC)ccc1OCCSc1ccc(Cl)cc1
  8%	?	14%	-4.9%	0%	-36%	?	-6%
COC(=O)c1sc2cc(C(F)(F)F)cnc2c1-c1ccccn1
  2%	19%	5%	·	0%	1%[46.1 µM]	·	-3%

Part of the list above in order of molar mass, falling.
The line under a structure holds: RE007 growth inh	Lassa entry inh	NS1 inh	Cruzain Triton	SARS PLpro yeast	Marburg entry inh	Cruzain inh noDet	2A StopGo
CC1(C)Cc2c(sc3nc(SCC(=O)NCc4ccco4)n(-c4ccccc4)c(=O)c23)CS1
  4%	-18%	14%	-7.2%	-3%	-6%&-6%&-6%	-21%	2%
O=C1COc2cc(S(=O)(=O)CCC(=O)N3CCN(c4ccccc4F)CC3)c(Cl)cc2N1
  ·	20%[46.1 µM]	·	-4.6%	·	·	14%	-25%
COc1cc2ccccc2cc1C(=O)OCC(=O)N1CCOCC1
  -5%	14%	-2%	-0.4%	-2%	7%	-1%	-21%
CC(C)(C)C1CCC(C(=O)NNC(=O)c2ccncc2)CC1 (centres undefined)
  2%	-24%	·	·	·	?	·	-6%

Next results.
The line under a structure holds: RE007 growth inh	Lassa entry inh	NS1 inh	Cruzain Triton	SARS PLpro yeast	Marburg entry inh	Cruzain inh noDet	2A StopGo
COc1ccc(N(C(=O)COc2ccccc2)C2C=CS(=O)(=O)C2)cc1 (centres undefined)
  12%	13%	-7%	3.5%	2%	0%	1%	·
O=C(Nc1ccc(F)cc1)OCCOc1ccc(Br)cc1
  -12%	·	2%	·	1%	·	·	7%
COc1ccccc1N(CC(=O)N1CCc2ccccc2C1)S(C)(=O)=O
  -1%	2%	1%	·	0%	-2%[46.1 µM]	·	-9%
Cc1ccc(C2=N/C(=C\N3CCCCC3)C(=O)O2)cc1
  4%	-4%	-11%	-8.7%	-12%	?	-9%	0%
COC(=O)CCC(=O)NC(=S)Nc1ccc(S(=O)(=O)Nc2cc(OC)nc(OC)n2)cc1
  -24%	9%	21%	-3.9%	-3%	35%	-15%	108%[activator]
CC(=O)NC(C)c1ccc(Cl)c(Cl)c1 (centres undefined)
  12%	-2%	-2%	-1.3%	2%	14%	3%	·
CCc1ccc(CN2C(=O)c3ccccc3C2C(=O)NC2CCCCCC2)cc1 (centres undefined)
  ·	-18%[46.1 µM]	·	-2.6%	·	-25%[46.1 µM]	-5%	-11%
Cc1ccc(NC(=O)CSc2ccc(-c3ccc(-n4cccn4)cc3)nn2)c(C)c1
  -5%	8%	·	·	-6%	5%	·	-12%
C=CCNCC(=O)Nc1ccccc1SCC(=O)Nc1ccsc1C(=O)OC
  8%	?	-8%	·	0%	0%[46.1 µM]	·	-18%
